Screening results (PubChem)
BJeLR viability = BJeLR cell viability loss | hit rate 0.17% among 300,000 | inhibition, % (no concentration beside the values) | AID 1554 | BJeLR (HRASV12) viability, CellTiter-Glo ATP luminescence, 48 h; reference of the scale not given here;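 active means replicate mean above 50%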;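 further: 50 nL library stock added to about 25 µL; numbers are from one replicate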
Bead autofluor = compound fluorescence in toxin protease inhibitor counterscreen; fluorescence intensity (test concentration not listed); hit rate 3.1% among 360,000; AID 624483; compound autofluorescence counterscreen, microsphere flow cytometry; active compounds read high;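 active means at least 3 SD above the mean of all compounds, about 16000 in these data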;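 further: 100 nL of 1 mM stock went into each well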
PrP 5UTR inh = suppresses PrP 5' UTR mRNA reporter expression; cell-based PrP 5' UTR mRNA reporter, plate reader; inhibition, % (concentration not given with the values); hit rate 0.35% among 340,000;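 active means every replicate at 50% or more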;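 further: 0 = median of the neutral control wells; tested in H4 reporter cells; numbers are from one replicate; inactives centre near -14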
Sa RN4220 lethal = S. aureus RN4220 growth inhibition. OD600, 16 h. inhibition, % (concentration not given with the values). hit rate 0.33% among 330,000. AID 1259311;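 active means z-score of -3 or lower and OD600 up to 0.18 on both plates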;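 further: plate controls were untreated cells for no effect and reference antibiotic for full effect; stock transfer was 100 nL into about 80 µL; one replicate is shown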
Sa ugtP lethal = kills S. aureus RN4220 lacking UgtP; S. aureus RN4220 ugtP deletion, OD600 growth, 16 h; some inactives read as strong as hits; growth inhibition, % (no concentration beside the values); hit rate 0.54% among 330,000; AID 1259309;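 active means z-score under -3 and OD600 up to 0.15 on both plates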;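 further: plate controls were untreated wells for no effect and antibiotic for full effect; wells of about 80 µL received 100 nL stock; the first replicate is given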
Mtb hypoxia rep = inhibitors of hypoxia-regulated fluorescent reporter in Mycobacterium tuberculosis; hit rate 0.1% among 300,000; M. tuberculosis hypoxia-regulated fluorescent reporter, fluorescence; fluorescence inhibition, % (concentration not given with the values);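 active means 35 to 45% if threefold the growth effect, above 45% if 1.5-fold the growth effect; inactive means the rest, general growth blockers included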;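 further: wells of about 50 µL received 100 nL stock; 0% = vehicle wells and 100% = reference inhibitor wells; whole bacteria with a GFP reporter of the hypoxia response; strong numbers were not always called active; many hits fall short of the cut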
Mtb hypoxia rep growth = also measured in Mtb hypoxia rep; calls as there; growth inhibition, %; measured here: M. tuberculosis growth (absorbance);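 0% = vehicle and 100% = reference antibiotic; read after six days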
An asterisk follows results filed as active; . = not tested or not shown; & = joins results of further samples.

The first two entries, to show the layout:
SMILES	BJeLR viability	Bead autofluor	PrP 5UTR inh	Sa RN4220 lethal	Sa ugtP lethal	Mtb hypoxia rep	Mtb hypoxia rep growth
Cc1ccc2[nH]c3c(c2c1)SC(C)(C)CC3=O	-4	4100	-29	0.5	-9	-4	4
COc1ccc(NC(=O)CN2CCc3ccccc3C2)c(OC)c1	2	3685	-5	3.6	6	2	11

Main list, from the first entry:
SMILES	BJeLR viability	Bead autofluor	PrP 5UTR inh	Sa RN4220 lethal	Sa ugtP lethal	Mtb hypoxia rep	Mtb hypoxia rep growth
Cc1ccc2[nH]c3c(c2c1)SC(C)(C)CC3=O	-4	4100	-29	0.5	-9	-4	4
COc1ccc(NC(=O)CN2CCc3ccccc3C2)c(OC)c1	2	3685	-5	3.6	6	2	11
COc1ccc(C(C(=O)NC(C)(C)C)N(C(=O)Cn2nnc3ccccc32)c2ccc(C(C)=O)cc2)cc1O (configuration not stated)	8	4573	-9	4.0	10	3	4
CCOc1cc(C=NNC(=O)c2ccc(CN3CCOCC3)cc2)ccc1OC	.	.	.	4.3	-2	1	9
CCOc1ccc(NC(=O)C2CCN(S(=O)(=O)CC)CC2)cc1	-1	3570	-27	3.6	12	4	5
COc1cc(N2C(=O)c3ccccc3C2=O)c(Cl)cc1C(=O)OCC(=O)NCc1ccco1	4	2053	-30	0.6	-4	.	.
COc1cc(-c2nnc(NC(=O)c3ccco3)o2)cc(OC)c1OC	1	4621	2	5.7	0	-5	-4
O=c1c2oc3ccccc3c2ncn1Cc1ccccc1Cl	-2	10056	-36	2.1	3	3	4
Cc1ccc(S(=O)(=O)Nc2ccc(C(=O)OCC(=O)N(CCC#N)c3ccccc3)cc2)cc1C	10	9499	-20	2.4	10	11	12
CCCNC(=O)c1ccccc1C(=O)NCCC	2	4155	-9	-6.4	-1	.	.
NC(=O)NC(=O)COC(=O)c1ccc2noc(-c3ccccc3)c2c1	-22	3922	-27	5.8	8	-3	4
CCc1ccc(NC(=O)C2CCCN(S(C)(=O)=O)C2)cc1 (configuration not stated)	10	3269	-20	2.9	4	-3	4
O=C(Nc1ccc2nsnc2c1)c1ccc2c(c1)OCO2	.	23719*	-86	2.9	-7	3	9
Cc1c(C(=O)Nc2ccccc2C(=O)N2CCCC2)cccc1[N+](=O)[O-]	1	2017	-3	5.7	0	-12	-1
Cc1ccccc1-c1nnn(CC(=O)N2CCN(S(=O)(=O)c3ccc(Cl)cc3)CC2)n1	8	4773	-29	-4.3	-20	.	.
Cc1cc(C)c2c(n1)nn1c(NCCOCCO)cc(C)nc21	-4	4330	-17	3.7	3	5	8
Cc1ccc(CC(=O)NCCN2CCOCC2)cc1	-13	3023	-15	-0.6	0	-1	0
O=C(c1sc2ccccc2c1Cl)N1CCN(c2ncccn2)CC1	4	2119	-25	-1.5	0	-11	-27
COCCNCCCCSc1ccc(Cl)cc1	-2	2060	-18	5.3	8	23	11
CCC(=O)Nc1ccc(Cl)c(NC(=O)c2ccccc2OC)c1	-5	2559	-17	5.4	-2	3	-6
Cc1cc(C[n+]2ncsc2N)c2ncccc2c1	2	4343	-42	13	3	6	8
Cc1ccc(NC(=O)Cn2ncn3c(cc4ccccc43)c2=O)c(C)c1	6	4662	-4	14	3	6	-1
N#Cc1ccccc1OCC(=O)OCCCOC(=O)COc1ccccc1C#N	-11	4869	-13	2.8	1	5	7
CCOc1ccc(-c2c(=O)n(O)c3ccccc3[n+]2[O-])cc1	-10	3698	-31	8.4	0	14	-3
COc1ccc(OC)c(Nc2nc(N)c([N+](=O)[O-])c(NC3CCCCC3)n2)c1	7	4302	-3	0.3	0	9	-2
CN(c1ccc(C(=O)N2CCN(Cc3ccccc3)CC2)cc1)S(=O)(=O)c1ccc(Cl)cc1	-2	4772	-10	4.3	4	6	7
COC(=O)c1ccc(S(=O)(=O)N2CCCCCC2)n1C	-4	4367	-15	3.6	7	9	7
COc1ccc(N=C2SC(C(=O)N3CCN(c4ccccc4)CC3)CC(=O)N2C)cc1 (configuration not stated)	4	5738	-13	-7.9	-4	9	0
Cc1ccc(SCc2cc(=O)[nH]c(/N=C(\N)Nc3cccc4ccccc34)n2)cc1	6	2106	-2	.	.	.	.
CC(C)(C)OC(=O)NCCCCCc1nnc(SCC(=O)Nc2cccc(Cl)c2)o1	-2	16480*	13	-0.5	5	3	-1
O=C(CC1CC=CCC(Cc2ccc(F)cc2)C(=O)OCCNC1=O)NC(CO)Cc1ccccc1 (configuration not stated)	.	.	.	9.1&6.0	-1&-6	16&-1	7&9
Brc1ccc(C2=Nc3cccc4cccc(c34)N2)o1	6	2105	-52	5.6	-12	9	6
CCNc1ccc(C(=O)OCC)cc1NC(=O)c1cccc(S(=O)(=O)N(C)c2ccccc2)c1	-9	2206	-10	0.7	-13	8	2
CCNC(=O)N(C)C[C@H]1N[C@@](C)(C(=O)OC)[C@H]2C(=O)N(Cc3ccccc3)C(=O)[C@@H]12	.	3708	-6	0.1	2	-6	5
COc1cc(C2C3=C(CCCC3=O)Nc3[nH]n(-c4ccccc4)c(=O)c32)cc(OC)c1OC (configuration not stated)	6	4658	-6	3.7	8	1	2
Cc1nn(CC(=O)N(C)C)c(=O)c2ccccc12	14	22253*	-35	11	0	9	0
Cc1cc2c(c(C)c1CCOC1OC(CO)C(O)C(O)C1O)C(=O)C(C)C2O (configuration not stated)	.	.	.	3.4	-1	8	13
COc1ccc(Cl)cc1C(=O)NNC(=O)C1COc2ccccc2O1 (configuration not stated)	2	4274	-10	6.1	-5	0	6
C=CCNC(=O)COc1ccc(N(C)S(=O)(=O)c2ccc(NC(C)=O)cc2)cc1	10	3247	-4	7.9	7	-7	9
O=C(CCC(=O)N1CCN(S(=O)(=O)c2ccc(Cl)cc2)CC1)Nc1cccc(Br)c1	0	9800	-4	4.0	-4	5	-3
Cc1ccc2c(CC(=O)O)coc2c1C	-2	2776	-11	3.7	1	.	.
CC12C(=O)N(c3ccccc3)C(=O)C1C(c1ccccc1)N1CCCN12 (configuration not stated)	13	3536	-23	6.8	13	-10	7
COc1ccc(C(=O)Nc2cc(C)nn2-c2nc3ccccc3[nH]2)c(OC)c1	0	4149	-111	-8.9	-9	-12	-5
O=c1[nH]c2ccc(Cl)cc2c(-c2ccccc2)c1N1CCOCC1	-6	4208	0	5.0	-4	-8	1
C=CCn1c(SCc2cc(=O)n3ccsc3n2)nc2scc(C3CC3)c2c1=O	-11	3759	-16	1.6	-7	11	9

Whole records as entered above. Values in the order: BJeLR viability	Bead autofluor	PrP 5UTR inh	Sa RN4220 lethal	Sa ugtP lethal	Mtb hypoxia rep	Mtb hypoxia rep growth
Listed for O=C(CC1CC=CCC(Cc2ccc(F)cc2)C(=O)OCCNC1=O)NC(CO)Cc1ccccc1 (configuration not stated) : .	.	.	9.1&6.0	-1&-6	16&-1	7&9
Listed for C=CCn1c(SCc2cc(=O)n3ccsc3n2)nc2scc(C3CC3)c2c1=O : -11	3759	-16	1.6	-7	11	9
Listed for CCNC(=O)N(C)C[C@H]1N[C@@](C)(C(=O)OC)[C@H]2C(=O)N(Cc3ccccc3)C(=O)[C@@H]12 : .	3708	-6	0.1	2	-6	5

(more compounds)
SMILES	BJeLR viability	Bead autofluor	PrP 5UTR inh	Sa RN4220 lethal	Sa ugtP lethal	Mtb hypoxia rep	Mtb hypoxia rep growth
COc1cccc(C(=O)NNc2nc(C)cc(C)n2)c1	-5	2031	-23	5.7	3	2	8
C#CCOc1ccc(/C=C2/C(=O)N(c3cccc(C(=O)O)c3)N=C2C)cc1OC	2	3037	-6	.	.	.	.
Cn1c(=O)c(=O)n(C)c2cc(N3CCOCC3)c(NS(=O)(=O)c3ccc(Br)cc3)cc21	4	5076	-8	0.5	0	1	5
Cc1ccc2cc(CN(C(=O)C3CCCO3)C3CCCCC3)c(=O)[nH]c2c1 (configuration not stated)	-2	5407	-16	0.3	-6	.	.
CCCC1(c2ccccc2)NC(=O)N(CC(=O)Nc2cc(C)on2)C1=O (configuration not stated)	6	4297	-14	1.0	5	14	11
Cc1ccc2nc(SCC(=O)Nc3ccc(Cl)cc3)nc(=O)n2c1	3	.	-8	2.1	2	-4	7
Cc1ccc(C)n1/N=C1/NC(=O)CS1	-3	3654	-14	26	-3	8	5
O=C(NCCN1CCOCC1)/C(=C\c1ccc(F)cc1)NC(=O)c1ccccc1	-4	5861	-4	-1.0	-4	0	8
O=C(O)CSc1nc(SCc2ccccc2Cl)nc2c1CCCC2	-5	6541	-15	17	-9	14	11
O=C(O)CCCCCN1C(=O)C2CCCCC2C1=O (configuration not stated)	5	6828	-26	-0.4	-7	-8	9
CCOC(=O)c1ccccc1NC(=O)COC(=O)CSC(C)C(=O)Nc1cc(C)on1 (configuration not stated)	3	5820	-1	2.0	9	6	4
Cc1ccc(C)c(N(C(=O)c2csnn2)C(C(=O)NC2CCCC2)c2ccncc2)c1 (configuration not stated)	4	5483	-13	2.5	3	3	9
O=C(NCC1CCCCC1)C1(CC2CC(c3cccc(Br)c3)=NO2)CCNCC1 (configuration not stated)	-7	3117	-27	-1.3	-24	10	10
Cc1cc(N2CCCC(C(=O)Nc3cccc4ccccc34)C2)n2ncnc2n1 (configuration not stated)	-5	4265	-29	3.9	1	-2	2
COc1ccc(N=Cc2c(O)n(C)c(=O)n(C)c2=O)cc1	2	2964	-28	3.0	13	-2	-9
CCCc1cc(=O)n2nc(N3CCC(C(=O)N4CCN(c5cccc(OC)c5)CC4)CC3)sc2n1	3	5537	-8	-1.1	1	-4	5
COc1cc2c(cc1OC)CN(CC(=O)NC(=O)NC(C)(C)C)CC2	5	3204	-8	2.3	0	8	2
Cc1ccc(-c2ccc(CCC(=O)O)n2NC(=O)c2ccc([N+](=O)[O-])cc2)cc1	3	4297	-40	2.1	10	10	1
Cc1csc(=O)n1CCC(=O)OCc1nnc(-c2ccc([N+](=O)[O-])cc2)o1	.	6351	-12	0.5	10	-2	3
Cc1cc(C)cc(NC(=O)Cn2nnc(C(=O)NCc3ccco3)c2N)c1	3	4212	-17	0.9	0	0	8
Cc1cc(C=NNC(=O)c2ccc(CN3CCOCC3)cc2)c(C)n1-c1ccccc1	.	.	.	-1.4	0	3	-2
O=C(O)c1ccccc1NN=Cc1cc(Br)cc(Br)c1O	.	.	.	19	12	20	-5
Clc1ccc(OCCn2ccnc2)c2ccccc12	-4	11064	-15	-4.2	-13	20	19
O=C(Nc1ccc(S(=O)(=O)N2CCOCC2)cc1)c1cccs1	1	4917	-34	0.6	-1	.	.
CCOC(=O)c1cccc(NC(=S)NC(=O)c2cccnc2)c1	-4	3647	-51	1.2	14	-1	5
COc1ccc(C[C@H]2CN3C(=NC[C@@H]3C)N2CCNC(=O)CCC2CCCCC2)cc1	4	4066	-13	.	.	.	.
CCOc1ccc(/C=C2\SC(=S)N(CC(=O)N(CCO)C(C)(C)C)C2=O)cc1	-4	4511	-21	6.5	6	0	4
O=C1CC(c2cccc(O)c2)Oc2ccccc21 (configuration not stated)	.	4120	-32	4.2	7	9	8
Cc1ccc(C)c(NC(=O)CCN2CCN(CCO)CC2)c1	2	3329	-19	0.6	12	2	-2
Cn1cc(C(=O)NCc2ccc(F)cc2)cn1	2	4992	-28	10	6	4	6
Cc1ccc(SCc2ccc(C(=O)Nc3cccnc3)cc2)cc1	-6	2182	-17	5.6	0	9	7
CCC(=O)NCCc1cc2ccc(C)c(C)c2[nH]c1=O	-2	5959	-11	1.3	7	3	1
O=c1cc(OCc2ccccc2)cc[nH]1	.	2145	5	4.4	7	-3	-5
O=S(=O)(NC1CCCCC1)c1ccc(S(=O)(=O)N2CCN3CCCC3C2)cc1 (configuration not stated)	3	10186	-33	5.6	-9	-4	5
COc1ccc(CN(C(=O)c2snc(C(N)=O)c2N)C(C(=O)NC2CCCC2)c2cc(OC)ccc2OC)cc1 (configuration not stated)	7	3763	-18	7.6	-1	8	6
Cc1ccc(C(=O)N/C(=C/c2ccc(Cl)cc2)C(=O)N2CCOCC2)cc1	1	3218	9	4.2	4	6	2
Cc1ccc(-c2nc(NCc3ccco3)c3ccccc3n2)cc1	3	2547	-17	-16	0	-5	-5
Cc1cc(NC(=O)C(C)SCC(=O)OCc2c(Cl)cccc2Cl)no1 (configuration not stated)	2	5882	-27	1.3	-1	0	0
COc1ccc(N2CCN(C(=O)COC(=O)c3ccc(C)o3)CC2)cc1	-4	.	-23	2.7	1	3	3
C/C(=N\N=C(N)N)c1ccc(Cl)cc1Cl	2	4435	-6	.	.	.	.
